TAR Tat displ: HIV-1 TAR-Tat binding disruption; HIV-1 TAR RNA, Tat peptide displacement FRET; active compounds read high; z-score (concentration not given with the values); hit rate 0.6% among 100,000; AID 1259389;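 note: score is relative to mean and SD of negative controls; some compounds called inactive have numbers as strong as hits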
CDC25B-CDK2 inh: human CDC25B-CDK2/CyclinA binding inhibition. HTRF CDC25B-CDK2/CyclinA binding, anti-His/anti-Flag; active compounds read high. z-score (test concentration not listed). hit rate 0.72% among 94,000;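 note: score is relative to mean and SD of negative controls; strong numbers were not always called active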
An asterisk follows results filed as active; . = not tested or not shown.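 Rule for the calls: active = z-score from 3 up in half or more of its runs; inactive = the rest.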

SMILES	TAR Tat displ	CDC25B-CDK2 inh
O=C(CN1C(=O)NC2NC(=O)NC21)NC1CCCCC1 (configuration not stated)	1.1	0.9
C=CCn1c2ccccc2n2ncnc12	0.74	0.9
COc1cc(Cl)cc2c1OC=CC(C(=O)Nc1ccccc1)=C2	-0.94	-0.66
O=c1cc(CO)oc(C(Nc2ccccn2)c2ccc3c(c2)OCO3)c1O (configuration not stated)	.	0.56
CSc1nc2nc(C)cc(=O)n2[nH]1	.	-1.2
Cc1ccc2nc(NC3=NCN(CCN4CCOCC4)CN3)nc(C)c2c1	2.4	0.22
CCOC(=O)c1c(C)[nH]c(C)c1S(=O)(=O)N1CCC(C(=O)N2CCC(C(=O)OCC)CC2)CC1	0.21	.
Cn1c(=O)c(=O)n(C)c2cc(N3CCCC3)c(NS(=O)(=O)c3ccc(F)c(Cl)c3)cc21	-1.4	.
CCN(CC)C1=NS(=O)(=O)C(c2cccc(Cl)c2)=C1C	0.14	-0.45
CCS(=O)(=O)N1CCCc2ccc(NS(=O)(=O)c3cc(OC)ccc3OC)cc21	-0.11	.
Cc1cc(-c2ccc(C)c(S(=O)(=O)Nc3ccc(C)c(Cl)c3)c2)on1	-0.33	.
CCCc1cc(=O)n2nc(N3CCC(C(=O)NCCCOC(C)C)CC3)sc2n1	2.1	-0.21
Cc1ccc(Cn2cccc2C2=NC(C)(C)CO2)cc1	2.9	.
CCN(CC)c1ccc(CNC(CC(=O)O)c2cccs2)cc1 (configuration not stated)	.	0.25
CCCS(=O)(=O)Nc1ccc2c(c1)CCC(=O)N2CC	2.1	.
COC(=O)C1=C(C)NC(C)=C(C(=O)OC)C1c1ccsc1	.	-0.81
CCCN(CCC)C(=O)CN1C(=O)N(c2cc(C)cc(C)c2)C2CS(=O)(=O)CC21 (configuration not stated)	0.07	-0.19
Cn1c(SCc2ccc(F)cc2)nc(=O)c2c1NC(=O)CC2c1cccc(O)c1 (configuration not stated)	-0.43	-1.2
C#CCSc1nc(C)c2cc(C)ccc2n1	0.29	-0.24
Cc1ccc(-c2n[nH]c3c2C(c2cccc(O)c2)NC3=O)cc1 (configuration not stated)	-0.78	.
CCN1CCN(C(=O)Cn2c(=O)oc3cc(S(=O)(=O)N4CC(C)CC(C)C4)ccc32)CC1 (configuration not stated)	1.7	0.15
CS(=O)(=O)Nc1nc2ccc(NC(=O)C3CC3)cc2s1	0.3	.
O=c1ccc2ccc(O)c(CN3CCOCC3)c2o1	.	-1.5
Cc1cc(=O)nc2c3ccccc3n(C(C)C(=O)Nc3c(F)cc(F)cc3Br)n12 (configuration not stated)	-3	-0.83
Cc1ccc(Nc2nc(NCCO)nc3c2cnn3C)cc1	1.1	.
Cc1ccc(NS(=O)(=O)c2ccc3c4c2CC(=O)N4CC(C)S3)cc1F (configuration not stated)	0.25	.
COCCCNC(=O)c1c(NC(=O)c2nn(-c3ccc(F)cc3)ccc2=O)sc2c1CCCC2	-0.34	-1.1
Cc1ccc(N2C(=O)CC(N3CCC(O)(c4ccc(Cl)cc4)CC3)C2=O)cc1 (configuration not stated)	.	-0.83
CCCn1c2ccccc2c2cnn(CC(=O)NC3CCCC3)c(=O)c21	-0.66	.
Cc1cc(C)c2c(=O)c(C3C4=C(CC(C)(C)CC4=O)OC4=C3C(=O)CC(C)(C)C4)coc2c1	.	-1.4
Cc1cc(C)nc(Sc2ccc(C(F)(F)F)cc2[N+](=O)[O-])n1	.	-1.1
CC1=C2C(O)C(=O)OC3CC4C(C)(C)C(=O)C=C[C@]4(C)C(CC1)[C@]23C (some centres not stated)	3.3	.
Cc1ccc(C)n1-c1nn(S(=O)(=O)c2ccccc2)c2cccc(F)c12	.	-2.4
Cc1cc(C)n(-c2ncc(S(=O)(=O)c3ccc(Cl)cc3)c(N)n2)n1	.	-0.78
Cn1c(=O)c2c(-c3ccc(Br)cc3)n(CCc3c[nH]c4ccccc34)cc2n(C)c1=O	1.7	-1.5
CNC(=S)NNC(=O)C(C)Oc1ccccc1-c1ccccc1 (configuration not stated)	.	-2
Cc1cc(C)c(C#N)c(Sc2ncnc3c2nnn3Cc2ccccc2)n1	.	-2.4
Cc1cccc(-n2c(-c3ccncc3)n[nH]c2=S)c1	.	-1.2
Cc1cc(-c2ccc(=O)[nH]n2)cc(S(=O)(=O)N2CCC(Cc3ccccc3)CC2)c1C	8.8*	.
O=c1c(-c2ccccc2Cl)coc2c(CN3CCN(Cc4ccccc4)CC3)c(O)ccc12	0.77	0.25
CC1(O)CC(=O)N(c2ccccc2)O1 (configuration not stated)	.	-0.05
Cc1nc2cc(-c3ccc(Cl)cc3)nn2c(C)c1CCC(=O)NC1CCCC1	.	0.69
COc1ccc(C(=O)NCc2cccnc2)cc1C(=O)NCc1cccnc1	.	-0.22
Cc1cc(Nc2ccccc2C)nc(-n2nc(C)cc2C)n1	0.55	.
COc1cc(OC)c(NC(=O)Nc2noc3c2COc2ccccc2-3)cc1Cl	2.7	.
O=C(CCc1nnc2ccc(N3CCOCC3)nn12)N1CC=C(c2ccccc2)CC1	0	.
c1ccc(-n2nnnc2Oc2cccc(CNCc3cccs3)c2)cc1	1.2	.
O=c1ccc2cc(S(=O)(=O)NCCCN3CCN(c4ccccc4)CC3)ccc2[nH]1	2.1	.
Cc1ccsc1CN1CCc2nc(N3CCN(c4ccccn4)CC3)ncc2C1	-0.18	.
Clc1ccccc1CN1C2=NCCCN2c2ccccc21	0.64	-0.47
O=C(CN1N=NC2C(=O)N(c3ccc(Cl)cc3)C(=O)C21)Nc1ccc2c(c1)OCCO2 (configuration not stated)	-0.26	.
CCSCCOC(=O)C1=C(C)NC2=C(C(=O)CCC2)C1c1ccc(CC)cc1 (configuration not stated)	0.02	-0.34
O=S(=O)(NCc1ccc(N2CCOCC2)cc1)c1cccs1	.	-1.7
Cn1c2ccccc2c2[nH]c3ccccc3c21	.	0.27
CCCCC#Cc1cncc(C(=O)NNC(=O)Nc2ccc(Cl)cc2)c1	.	-0.66
O=S1(=O)N=CNc2ccc(S(=O)(=O)Nc3ccc(Oc4ccccc4)cc3)cc21	-0.48	.
CCCc1cnc(N2CCN(C(=O)NS(=O)(=O)c3ccc(C)cc3)CC2)nc1	.	-3
CNCc1nc2cc(C(=O)N3CCCC3)ccc2n1C	-0.44	.
Cc1nc2nc[nH]n2c(=O)c1CCO	-0.23	-2
COc1ccc(/C=N/NC(=O)c2nccnc2N)c(OC)c1OC	.	-2.2

2 of these compounds, reformatted.
Fields – TAR Tat displ	CDC25B-CDK2 inh
Cc1ccsc1CN1CCc2nc(N3CCN(c4ccccn4)CC3)ncc2C1
    -0.18	.
CCCCC#Cc1cncc(C(=O)NNC(=O)Nc2ccc(Cl)cc2)c1
    .	-0.66

(continued)
SMILES	TAR Tat displ	CDC25B-CDK2 inh
Cc1[nH]nc(-c2ccc(O)cc2O)c1Oc1ccc(F)cc1	.	1.6
O=C(O)CSc1n[nH]c2nc3ccccc3n12	.	-0.73
CC(C)CC(NC(=O)C1CCC(C)CC1)C(=O)O (configuration not stated)	-1.2	-1.2
CN(C)c1ccc(CNS(=O)(=O)c2ccc3[nH]c4c(c3c2)CCCCC4)cc1	1.2	.
Cc1noc(C)c1S(=O)(=O)NCc1cccs1	.	0.53
O=C1c2ccccc2NC(c2ccccn2)N1CCCN1CCOCC1 (configuration not stated)	.	0.9
O=C(c1ccco1)N1CCN([C@H]2CS(=O)(=O)C[C@@H]2S(=O)(=O)c2cccs2)CC1	-0.18	-0.13
CCOC(=O)c1cc(=O)n(C)c2c1c(=O)n(C)c(=O)n2C	-0.54	-1
Cc1cccn2c(=O)c3cc(C(=O)Nc4cccc(Br)c4)n(C)c3nc12	-2.7	.
COc1cccc(-c2csc(-c3ccccn3)n2)c1	1.3	-0.79
O=C1CCCC2=C1C(c1ccco1)N(C(=O)Nc1ccccc1)c1ccccc1N2 (configuration not stated)	2	.
O=C(Cn1nc(-c2ccc(F)cc2)c2cnc3cc4c(cc3c21)OCCO4)NC1CCCC1	-0.32	.
COc1ccccc1C1C2=C(CC(C)(C)CC2=O)Nc2nc(SCc3cccc(F)c3)nn21 (configuration not stated)	0.48	-1.6
Clc1ccc(-c2noc(CN3CCOCC3)n2)cc1	-0.64	-3.3
COc1ccccc1N1C(=O)CC(Nc2ccc(N3CCOCC3)cc2)C1=O (configuration not stated)	-0.15	-1.4
COc1ccc(C2N(S(=O)(=O)c3ccc(C)cc3)CCN2S(=O)(=O)c2ccc(C)cc2)cc1	0.35	0.38
O=S(=O)(c1ccccc1)n1nc(-c2ccccc2)nc1NCc1ccccc1	-0.45	-0.89
Cc1n[nH]c(C)c1C(C)C(=O)Nc1ccc2c(c1)OCCO2 (configuration not stated)	0.36	.
Cc1cc(N(C)C)nc(N2CCN(S(=O)(=O)c3ccc4nc(C)sc4c3)CC2)n1	1.8	.
CC1CC(C)CN(CCCNC(=O)C2CC3CCCN3C23C(=O)Nc2ccccc23)C1 (configuration not stated)	0.46	.
CCCc1nn2c(=O)cc(COC(=O)COc3ccccc3)nc2s1	-0.09	.
O=C(CN1CCN(Cc2ccc3c(c2)OCO3)CC1)c1ccc(F)cc1	.	0.53
CCCN(CCC)C(=O)c1c[nH]c2ccc(S(=O)(=O)Nc3ccc4c(c3)OCCO4)cc2c1=O	1.9	.
Cc1ccc(-c2csc(-c3cc4c([nH]c3=O)CC(c3ccccc3)CC4=O)n2)cc1 (configuration not stated)	-6.3	-0.21

Three compounds out of the list, ordered by molecular weight, smallest number first.
SMILES	TAR Tat displ	CDC25B-CDK2 inh
Clc1ccccc1CN1C2=NCCCN2c2ccccc21	0.64	-0.47
O=C1CCCC2=C1C(c1ccco1)N(C(=O)Nc1ccccc1)c1ccccc1N2 (configuration not stated)	2	.
CCCN(CCC)C(=O)c1c[nH]c2ccc(S(=O)(=O)Nc3ccc4c(c3)OCCO4)cc2c1=O	1.9	.

Three entries picked at random from the list so far:
SMILES	TAR Tat displ	CDC25B-CDK2 inh
COc1ccccc1C1C2=C(CC(C)(C)CC2=O)Nc2nc(SCc3cccc(F)c3)nn21 (configuration not stated)	0.48	-1.6
Cc1cc(N(C)C)nc(N2CCN(S(=O)(=O)c3ccc4nc(C)sc4c3)CC2)n1	1.8	.
Cc1ccc(-c2csc(-c3cc4c([nH]c3=O)CC(c3ccccc3)CC4=O)n2)cc1 (configuration not stated)	-6.3	-0.21

Next part:
SMILES	TAR Tat displ	CDC25B-CDK2 inh
N#CC1=C(N)Oc2n[nH]c(-c3ccccc3)c2C1c1ccc(Cl)cc1 (configuration not stated)	0.97	-2.9
Cc1nc2c(C)cccn2c(=O)c1NC(=O)c1ccc(F)c(F)c1	0.64	.
COC(=O)CSc1ccc2nnc(-c3ccc(F)cc3)n2n1	.	-0.81
Cc1ccc(C2=CC(c3ccc(C)cc3)n3ncnc3N2)cc1 (configuration not stated)	.	-1.6
O=C(c1cccc(Cl)c1)N1CCSC1=S	0.72	-0.06
CC1CC(C)CN(CCCNC(=O)C2CCN(c3ncnc4c3nc3n4CCCCC3)CC2)C1 (configuration not stated)	-0.47	.
Cn1c2c(c(=O)[nH]c1=O)C(c1ccc(OC(=O)c3ccccc3)cc1)C1=C(N2)c2ccccc2C1=O (configuration not stated)	-4.3	-2.6
CCC1CCCCN1CCn1c(=S)[nH]c2c(sc3ccccc32)c1=O (configuration not stated)	.	-1.2
CC1(C)CC(=O)C2=C(C1)N=C1c3ccccc3C(=O)C1C2c1ccc(O)c(O)c1 (configuration not stated)	2.5	-2.3
O=C(O)c1cc(-c2ccccc2Cl)nc2n[nH]c(-c3ccccc3)c12	1.8	.
CC1CCN(c2cc(C(=O)O)c3cc(N)ccc3n2)CC1	-6.2	.
CCOC(=O)C1Sc2ccccc2N=C1C (configuration not stated)	1.1	-1.8

4 entries from above, with each value named:
smiles: CC1(C)CC(=O)C2=C(C1)N=C1c3ccccc3C(=O)C1C2c1ccc(O)c(O)c1 (configuration not stated)
  TAR Tat displ: 2.5 | CDC25B-CDK2 inh: -2.3
smiles: O=C(O)c1cc(-c2ccccc2Cl)nc2n[nH]c(-c3ccccc3)c12
  TAR Tat displ: 1.8 | CDC25B-CDK2 inh: .
smiles: N#CC1=C(N)Oc2n[nH]c(-c3ccccc3)c2C1c1ccc(Cl)cc1 (configuration not stated)
  TAR Tat displ: 0.97 | CDC25B-CDK2 inh: -2.9
smiles: Cc1nc2c(C)cccn2c(=O)c1NC(=O)c1ccc(F)c(F)c1
  TAR Tat displ: 0.64 | CDC25B-CDK2 inh: .

Later entries:
SMILES	TAR Tat displ	CDC25B-CDK2 inh
COc1ccc2nc(NC(=O)Nc3ccccc3OC)sc2c1	1.6	-1.6
Cc1cc(-c2ccc(S(=O)(=O)Nc3cccc(-c4ccno4)c3)s2)n[nH]1	0.11	.
CS(=O)(=O)/C(C#N)=C/N=S(C)(=O)c1ccsc1 (configuration not stated)	.	-2.1
COC(=O)c1ccc(-c2ccco2)n1CC(=O)NCCN1CCCC1	-8.4	.
Cc1cccc(-c2nc3c4c(C)c(C)n(-c5cc(C)ccn5)c4ncn3n2)c1	1.9	-1.9
NCCc1nnc(SCc2ccc(Cl)cc2)o1	0.99	-0.27
Cc1cc(C)c2oc(C(=O)N(Cc3ccc(F)cc3)C3CCS(=O)(=O)C3)cc(=O)c2c1 (configuration not stated)	1.6	0.11
NS(=O)(=O)c1ccc(N/N=C2\CSCc3ccccc32)c([N+](=O)[O-])c1	.	0.57
CCOc1ccc(OCC)c(NC2c3ncccc3C(=O)N2Cc2cccs2)c1 (configuration not stated)	2.1	.
COc1ccc(-c2c3c(=O)n(C)c(=O)n(C)c3c3n2-c2ccccc2NC3c2cccs2)cc1 (configuration not stated)	-0.1	-1.3
CCOC(=O)C(C)Sc1ccc2nnc(-c3ccc(OC)cc3)n2n1 (configuration not stated)	.	-0.03
Cc1nc2nc(C)c(NS(=O)(=O)c3ccc(C)c(C)c3)c(=O)n2[nH]1	-0.18	-0.82
CC1(C)CC(=O)C2=C(C1)OC(N)=C(C#N)C2c1cccc(Oc2ccccc2)c1 (configuration not stated)	.	-0.61
Cc1ccc(C(=O)c2cn(Cc3cccc(F)c3)c3cc4c(cc3c2=O)OCO4)cc1	0.45	-0.42
O=C(c1ccco1)N1CCN(S(=O)(=O)c2ccc(-n3[nH]c(=O)c4ccccc4c3=O)cc2)CC1	-0.36	-1.3
CC(NS(=O)(=O)c1ccc(Cl)cc1)C(c1cccs1)N1CCN(c2ccccc2)CC1 (configuration not stated)	.	-1.1
